gsp ag: agonists of gsp mutant (McCune-Albright syndrome). gsp mutant cells, cAMP HTRF, 30 min; control for the full effect not named in the record. Potency, µM (doses to about 76.9 µM), without a hit: top-dose activation (cAMP increase), usual class: activators. 0.13% of 340,000 active; active = well fitted activation curve with a large enough effect; inconclusive = small, poorly fitted or top-dose-only effect, or another doubt; inactive = no such curve, though single readings can be large or run the other way; cell line not stated here;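 further: phosphodiesterase inhibitor Ro 20-1724 added with compounds to block cAMP breakdown; potency means the concentration at half of the fitted maximal effect; nearly all actives have a fitted effect of over 60% in size; about a fifth of the inactives were tested at one dose only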
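Cells stably selected in G418 were plated at 2000/well, grown 16-24 hr, then given compounds in DMSO with the PDE inhibitor […] (300 uM solution added) for 30 min at 37C; cAMP was read by HTRF.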
TRPML1 blocker: blocks the human TRPML1 channel; 0.02% of 390,000 active; TRPML1-inducible cells, Ca2+ dye fluorescence, FDSS; stronger effect = lower value; inhibition of EC80 agonist-evoked calcium signal; AID 624415; activity change, negative = inhibition, % (no concentration beside the values); Q9GZU1; in the data active means activity change below about -50%; inconclusive means about -30% to -50%; inactive means above about -30%;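 further: stimulus is agonist 54-4 at its EC80 concentration; on the % scale 0 is the no-effect control and ±100 the full control effect; compound concentration not given in the record; the text of the record puts the active cut at -80%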
Target sequence (Q9GZU1 whole entry, looked up): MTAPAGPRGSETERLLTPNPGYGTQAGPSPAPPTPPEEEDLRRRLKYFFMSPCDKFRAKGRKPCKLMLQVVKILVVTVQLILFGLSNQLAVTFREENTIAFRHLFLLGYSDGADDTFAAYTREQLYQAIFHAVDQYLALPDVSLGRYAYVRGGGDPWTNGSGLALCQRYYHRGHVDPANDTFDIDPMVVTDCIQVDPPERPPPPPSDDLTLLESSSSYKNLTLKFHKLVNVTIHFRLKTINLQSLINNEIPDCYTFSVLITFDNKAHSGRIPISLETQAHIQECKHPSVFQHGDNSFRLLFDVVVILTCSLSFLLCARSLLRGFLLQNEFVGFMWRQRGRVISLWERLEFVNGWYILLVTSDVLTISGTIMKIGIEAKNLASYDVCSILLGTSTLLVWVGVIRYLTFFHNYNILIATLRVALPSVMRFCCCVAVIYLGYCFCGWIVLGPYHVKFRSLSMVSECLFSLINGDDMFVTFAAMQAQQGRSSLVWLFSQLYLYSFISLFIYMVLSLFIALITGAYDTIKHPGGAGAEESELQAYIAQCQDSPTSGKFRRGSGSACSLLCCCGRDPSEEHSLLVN
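Tet-induced TRPML1-DL cells loaded with Ca8 no-wash calcium dye were read kinetically on FDSS. Compound addition was followed by EC80 agonist 54-4 (4 uM final); inhibition was read over 110 s.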
TRPML1 agonist: activates the human TRPML1 channel | 0.12% of 410,000 active | activation, % (test concentration not listed) | Q9GZU1 | TRPML1-expressing cells, Ca2+ dye fluorescence, FDSS; host cell line not named in the record; reference of the full effect not given here | AID 624414; in the data active = activation above about 50%; inconclusive = about 30% to 50%; inactive = below about 30%; further: 0% is about no effect; the text of the record puts the active cut at 80%
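Tet-induced TRPML1-DL cells, 1,500 per well, cultured overnight, were loaded with a no-wash Ca2+ dye for 45–90 min. Calcium fluorescence was recorded on the FDSS for 110 s after compound addition, before the EC80 agonist (4 uM 54-4) was added.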
Menin MLL FP FL: menin-MLL binding inhibition, fluorescein peptide; Fluorescence polarization, fluorescein-MLL peptide displacement from menin; 290,000 tested, under 10 active; FP activity change, % at 61.4 µM; AID 1766; inconclusive = falling polarisation curve, or a change in total fluorescence; inactive = total fluorescence flat and polarisation flat or rising; no compound was filed as active; the % refers to the polarisation; negative = inhibition;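 further: % of control where 0% means no effect; inhibitors lower the polarisation; unlabelled MLL peptide was the positive control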
gsp antag: antagonists of gsp mutant (McCune-Albright syndrome); gsp-mutant cells, cAMP HTRF, 30 min; control for the full effect not named in the record; Potency, µM (doses to about 76.9 µM), without a hit: top-dose activity change, negative = inhibition, hits mostly inhibitors; 0.4% of 340,000 active; active = falling curve of any shape with a large fitted effect; inconclusive = falling curve, mostly with a smaller effect; inactive = flat or rising curve; cell line not stated here;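 further: intracellular cAMP measured with PDE inhibitor Ro 20-1724 present during compound exposure; potency means the concentration at half of the fitted maximal effect; on the % scale 0 is the no-effect control and ±100 the full control effect; nearly all actives have a fitted effect of over 65% in size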
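G418-selected cells were plated in DMEM/10% FBS for 16-24 h at 37C, then treated with compounds plus the PDE inhibitor […] (300 uM solution added) for 30 min at 37C. Intracellular cAMP was measured by HTRF after 30 min lysis at room temperature.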
ClpP mod: qHTS Assay for Activators of ClpP; 1.9% of 340,000 active; AID 651965, 2013; Potency, µM (top dose mostly 57.5 µM), for inactives: at the highest dose activity change, negative = active; purified B. subtilis ClpP, FRET peptide cleavage, 20 min; ATP-dependent Clp protease proteolytic subunit (Bacillus subtilis (strain 168)), P80244; active = well fitted falling curve with a large enough effect; inconclusive = small, poorly fitted or top-dose-only effect; inactive = no such curve, though single readings can be large or run the other way; further: potency means the concentration at half of the fitted maximal effect; the source files actives as falling curves though it sought activators and does not explain the sign; nearly all actives have a fitted effect of over 65% in size; many hits overshoot -100%
Target sequence (P80244 whole entry, looked up): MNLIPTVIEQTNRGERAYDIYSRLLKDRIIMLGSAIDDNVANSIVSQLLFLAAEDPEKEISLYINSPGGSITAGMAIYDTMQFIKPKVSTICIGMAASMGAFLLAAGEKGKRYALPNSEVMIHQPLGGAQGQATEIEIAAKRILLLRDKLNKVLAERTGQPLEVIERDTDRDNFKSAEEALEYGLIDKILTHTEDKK
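Buffer: 100 mM Tris/HCl pH8, 100 mM KCl, 0.05% low protease BSA, 2.5% glycerol, 0.01% Tween-20. ClpP 10 microg/mL final; 20 min RT; delta FRET normalized to ADEP and DMSO controls.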
Numbers without * were called inactive; ? = inconclusive; · = not tested or not shown; [ ] = dose if it differs, or a comment.

SMILES	gsp ag	TRPML1 blocker	TRPML1 agonist	Menin MLL FP FL	gsp antag	ClpP mod
CC(C)(C)c1ccc(NC(=O)CNC2CCCc3ccccc32)cc1 (configuration not stated)	-24%[15.4 µM]	?	0.1	12	-16%	·
CCC(CC)c1nnc(NC(=O)CC(C)c2ccccc2)s1 (configuration not stated)	-26%	2	-0.6	-0.2	7%	·
CC(=O)c1ccc(NC(=O)CCCN2C(=O)/C(=C/C(C)=C/c3ccccc3)SC2=S)cc1	-7%	16	0.3	10	8%	0.5%
COc1ccc(NC(=O)C2CCCN(S(=O)(=O)c3cccc4nonc34)C2)cc1 (configuration not stated)	?	-9	-0.7	-1.3	0%	-0.2%
CCOC(=O)C1=C(C)N=C2SC=C(C)N2C1c1ccc(OC)cc1 (configuration not stated)	-18%	5	1.1	-1.2	-14%	-1.3%
CCOc1ccccc1N1CCN(C(=S)Nc2ccc(S(N)(=O)=O)cc2)CC1	-16%	45	0.6	7.5	-13%	-1.9%
O=C(COC(=O)c1cc(=O)[nH]c2ccccc12)Nc1ccccc1F	-5%	8	-0.2	·	11%	·
COc1ccc(CNC(=O)CCN2C(=O)c3ccncc3C2=O)cc1OC	-4%[15.4 µM]	-4	0.7	-2.1	-6%	·
CC(C)=CCN1CCN(Cc2ccc(C#CC(C)(C)O)cc2)CC1CCO (configuration not stated)	-5%[15.4 µM]	15	-0.6	-0.2	3%	·
CCOc1ccccc1N(CC)C(=O)c1nn(C)c2c1CSc1ccccc1-2	32%	41	1.2	0.2	-27%	0.3%
N#Cc1nc(-c2ccccc2Cl)oc1N1CCCCC1	-20%	-25	1.2	-0.1	3%[15.4 µM]	10µM*
COc1ccc(SCCc2ccncc2)cc1	-2%[15.4 µM]	-11	-0.2	0.1	-1%	·
CC(=O)OC(COC1C[C@@H]2CC[C@@]1(C)C2(C)C)C[N+]1(C)CCCCC1 (some centres not stated)	5%[15.4 µM]	6	0.1	2.8	11%	-0.5%
O[C@@H]1C[C@H](c2ccccc2)N(Cc2cccs2)C[C@H]1n1cc(C2CC2)nn1	-50%[inhibitor]	-16	-0.5	·	·	1.9%
Cc1cccc(NC(=S)Nc2cccc(C)n2)n1	16%	10	1.9	-5.4	2%	·
CC1CCCC(NC(=O)COC(=O)c2n[nH]c3ccccc23)C1C (configuration not stated)	-8%	-5	-0.5	·	4%	4.4%
CC(NC(=O)COC(=O)C1CC2CCCC(C1)C2=O)c1ccccc1 (configuration not stated)	0%	19	-0.1	·	9%	-1.0%
CS(=O)(=O)N(CC(=O)N1CCN(c2cccc(Cl)c2)CC1)c1cccc(F)c1	-19%	15	0.3	0.8	-17%	-14%
CCC(Sc1nc(C)cc(C)n1)C(=O)NC1=NN=C(c2ccc(C)cc2)CS1 (configuration not stated)	2%	15	-0.6	1.5	6%	-0.1%
CCOC(=O)N1CCN(C(=O)c2ccc(N(C)S(=O)(=O)c3ccc(C)cc3)cc2)CC1	-20%	-5	1.0	·	-21%	-0.6%
CC(=O)Nc1ccc(N2CCOCC2)c(S(=O)(=O)Nc2ccccc2Cl)c1	-27%	10	-0.4	·	·	-0.3%
CSc1ccc(CCNc2ncnc3onc(C)c23)cc1	·	-17	-0.4	·	·	0.6%
COc1cc(N(C(=O)Cc2cccs2)C(C(=O)NC2CCCCC2)c2cccc(OC)c2OC)ccc1-n1cnnn1 (configuration not stated)	0%	26	1.9	7.1	-5%	-28%
C[C@H]1CN([C@@H](C)CO)C(=O)CCCn2nncc2CO[C@@H]1CN(C)Cc1cccc(C(F)(F)F)c1	?	-9	0.2	·	·	-2.7%
C[C@@]12C(=O)N(Cc3ccco3)CC(=O)N1[C@H]1c3ccccc3OC[C@@H]1[C@@H]2c1ccccc1	20%	-3	-0.6	·	-18%	-0.2%
CCOC(=O)c1c(C)[nH]c2cc(Br)c(O)cc12	?	1	3.3	0.7	-10%	-1.5%
OCC[C@@H]1C[C@@H](O)[C@H](O)[C@]2(CCCO2)O1	·	22	-1.0	·	10%	2.5%
COc1ccccc1NS(=O)(=O)c1cc(NC(=O)CN2C(=O)NC3(CCCC3)C2=O)ccc1C	-1%[15.4 µM]	5	0.2	·	-1%	-3.6%
Cc1cc(C)c(C)c(S(=O)(=O)N2CCN(C(=O)c3ccccc3OCc3c(C)noc3C)CC2)c1C	2%	18	0.3	·	-32%	0.9%
COc1ccccc1CNC(=O)C(NC(=O)c1ccccc1)C(C)C (configuration not stated)	-8%	21	0.2	0.5	13%	1.9%
O=Cc1c[nH]c2ccc(C(=O)c3ccccc3)cc12	-17%[15.4 µM]	6	-0.6	-1.2	-1%	1.6%
COCCCNC(=O)c1cc(C(=O)Cc2ccccc2)c[nH]1	-43%[inhibitor]	17	0.9	1.3	6%	·
CC(=O)N1CCc2cc(S(=O)(=O)NCCC(=O)Nc3cccc(C)c3C)ccc21	0%	-2	-0.7	0.9	-5%	-1.7%
CN(C)S(=O)(=O)c1cccc(NC(=O)COC(=O)C2CCN(C(=O)c3ccc(F)cc3)CC2)c1	-1%	-3	4.3	·	9%	1.4%
COc1cccc(-c2onc3ccc(C(=O)/C=C/N(C)C)cc23)c1	-1%	36	1.1	4.4	?	·
CCCn1c(SCC(=O)c2cc(C)n(C3CC3)c2C)n[nH]c1=O	4%	-5	0.0	·	14%	1.5%
C[N+]1(CCCOC(=O)C2(c3ccccc3)CCCC2)CCOCC1	2%	-3	-0.2	0.3	8%	-3.3%
CCc1cc(C(=O)NNC(=O)CCN2CCN(c3ccccc3)CC2)sc1C	33%	-6	0.5	·	12%	-0.9%
COc1ccccc1N1C(=O)c2cccc3c(N(C)CCO)ccc(c23)C1=O	-10%	-4	17	?	3%	·
O=C(Nc1ccccc1Cl)c1cccc(NC(=O)C2C3CC4OC(=O)C2C4C3)c1 (configuration not stated)	?	-8	-0.5	2.6	-2%	-0.9%
Cc1ccc(N(CC(=O)NCc2ccc(F)cc2)C(=O)c2csnn2)c(C)c1	0%	-9	0.4	-4.2	5%	0.6%
Cc1cccnc1NC(=S)NC(=O)/C=C/c1ccccc1	6%	-18	-0.6	0.4	-12%	·
O=C(Nc1ccccc1)Nc1nncs1	25%	0	-0.5	2.5	7%	-3.1%
CC1CCCCN1CCCNC(=O)c1cc(Sc2ccc(Cl)cc2)nc2ccccc12 (configuration not stated)	·	-1	1.5	·	·	-0.7%
Cn1cccc1CC(=O)N/N=C/C=C/c1ccccc1	29%	-5	0.2	6.6	-8%	0.8%
Cc1c(C)c(C)c2[nH]c(-c3ccc4c(c3)OCO4)nc2c1C	-4%	·	·	3.1	?	3.4%
C=CCn1c(COc2cccc(C)c2)nnc1SCC(=O)c1c[nH]c2c(CC)cccc12	7%	18	0.9	-0.5	3%	-6.8%
Cc1ccc(CN2CCCCC2C(=O)Nc2ccc(Oc3cccnc3)cc2)o1 (configuration not stated)	-1%[15.4 µM]	3	-0.5	0.0	27%	-2.8%

Two records picked at random from those above:
SMILES	gsp ag	TRPML1 blocker	TRPML1 agonist	Menin MLL FP FL	gsp antag	ClpP mod
C[N+]1(CCCOC(=O)C2(c3ccccc3)CCCC2)CCOCC1	2%	-3	-0.2	0.3	8%	-3.3%
Cc1c(C)c(C)c2[nH]c(-c3ccc4c(c3)OCO4)nc2c1C	-4%	·	·	3.1	?	3.4%

Other entries.
SMILES	gsp ag	TRPML1 blocker	TRPML1 agonist	Menin MLL FP FL	gsp antag	ClpP mod
CC(C)(C)OC(=O)Cn1c(=O)cnc2ccccc21	-2%	-2	-1.2	3.5	1%	-28%
CCC(C(=O)O)n1cnc2scc(-c3ccc(C)c(C)c3)c2c1=O (configuration not stated)	-58%[inhibitor]	-12	-0.7	2.4	4%	·
COC(=O)Cn1cnc(=O)c(C#N)c1/C=C/N(C)C	-12%	18	-0.4	4.9	5%	-14%
O=C(Nc1ccccc1)N1N=C(c2ccc(F)cc2)CC1c1ccc(F)cc1 (configuration not stated)	1%	27	0.0	·	1%	?
CC1=NN(c2ccccc2)C(=O)/C1=C/c1c(O)n(-c2ccc(F)c(Cl)c2)[nH]c1=O	-54%[inhibitor]	15	0.4	5.6	3%	-7.5%
Cc1nn(C(C)(C)C)c(OC(=O)C2CCCC2)c1S(=O)(=O)c1ccccc1	0%	-6	0.9	-4.4	-7%[15.4 µM]	11µM*
Cc1ccc(S(=O)(=O)NCC(C)n2cncn2)cc1 (configuration not stated)	22%	-2	1.2	0.6	2%	·
CCN(CC(=O)Nc1ccc(NC(C)=O)cc1)C(=O)/C=C/c1ccc2c(c1)OCO2	-3%	16	0.5	·	-5%	?
CCOc1ccccc1NC(=O)CS(=O)(=O)c1cn(CC(=O)N2CCOCC2)c2ccccc12	11%[15.4 µM]	8	0.0	·	1%	1.1%
NC(=O)C1CCN(C(=O)COc2ccc(S(=O)(=O)NC3CCCC3)cc2)CC1	-5%	7	-0.3	0.1	5%	·
CCOC(=O)c1c(S(=O)(=O)N2CCCC(C(=O)Nc3ccc(C)cc3C)C2)c(C)n(CC)c1C (configuration not stated)	·	0	-0.9	·	·	0.5%
Cc1ccc(NC(=O)CS(=O)CC(=O)NCC2CCCO2)cc1 (configuration not stated)	8%	9	-0.3	3.1	14%	-0.7%
COc1cccc(NC(=O)CSc2nc(=O)n(Cc3ccccn3)c3c2CCC3)c1	·	6	0.3	·	·	-8.6%
c1ccc(CSc2nnc(-c3ccncc3)o2)cc1	-6%	-7	0.4	3.3	8%	-10%
CCSc1nnc(NC(=O)CSc2nccn2-c2cc(C)cc(C)c2)s1	-33%	-14	2.1	4.2	-9%	-0.5%

A second format for 4 compounds above:
COc1ccc(NC(=O)C2CCCN(S(=O)(=O)c3cccc4nonc34)C2)cc1 (configuration not stated)
  gsp ag: ? | TRPML1 blocker: -9 | TRPML1 agonist: -0.7 | Menin MLL FP FL: -1.3 | gsp antag: 0% | ClpP mod: -0.2%
CCOC(=O)C1=C(C)N=C2SC=C(C)N2C1c1ccc(OC)cc1 (configuration not stated)
  gsp ag: -18% | TRPML1 blocker: 5 | TRPML1 agonist: 1.1 | Menin MLL FP FL: -1.2 | gsp antag: -14% | ClpP mod: -1.3%
CCOc1ccccc1N1CCN(C(=S)Nc2ccc(S(N)(=O)=O)cc2)CC1
  gsp ag: -16% | TRPML1 blocker: 45 | TRPML1 agonist: 0.6 | Menin MLL FP FL: 7.5 | gsp antag: -13% | ClpP mod: -1.9%
O=C(COC(=O)c1cc(=O)[nH]c2ccccc12)Nc1ccccc1F
  gsp ag: -5% | TRPML1 blocker: 8 | TRPML1 agonist: -0.2 | Menin MLL FP FL: · | gsp antag: 11% | ClpP mod: ·
